Mtb betalactam: beta-lactam sensitization of Mtb H37Rv, H37Rv | 0.27% of 330,000 active | M. tuberculosis H37Rv growth with meropenem, percent inhibition; hits of this screen are not shown here | inhibition, % at 25 µM | AID 434955, 2010;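 active means about 74% or more and at least 40 points above the plate without the antibiotic, then above 30% in a dose series; inconclusive means first-round hits that could not be retested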;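 further: growth measured after seven days incubation then overnight dye step; 0% = bacteria only wells and 100% = bacteria with antibiotic; twin plates without the antibiotic show which effects depend on it; some results filed as inactive read as strong as hits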
Starred values were filed as active, the others as inactive. Only part of the results is shown (hit frequency here may not be typical).

How did Cc1ccc(S(=O)(=O)N(C)CC(=O)NNC(=O)CCS(=O)(=O)c2ccccc2)cc1 do in these assays?
Mtb betalactam: 1

How did CNC(=S)N1CCN(S(=O)(=O)c2ccc3ccccc3c2)CC1 do in these assays?
Mtb betalactam: -2

How did CC(=O)c1ccccc1NS(=O)(=O)c1ccc2c(c1)CC(=O)N2 do in these assays?
Mtb betalactam: 1

Results for CCC1(CC)NC(=O)N(CC(=O)OCC(=O)Nc2cc(OC)ccc2OC)C1=O ?
Mtb betalactam: -3

Results for O=C(c1cccc(S(=O)(=O)N2CCCc3ccccc32)c1)N1CCN(c2ccccc2)CC1 ?
Mtb betalactam: 12

What do the screens show for `Cc1nnc(SCC(=O)N(CCC#N)c2ccc3c(c2)OCCO3)s1`?
Mtb betalactam: 4

What do the screens show for `CC(C)=CCN1CC[C@@]2(C)c3cc(O)ccc3CC1C2C` (stereo not given in full)?
Mtb betalactam: -7

How did COc1cc2c(cc1O)C[C@H]1c3c(cc(O)c(OC)c3-2)CCN1C do in these assays?
Mtb betalactam: -1

What do the screens show for `O=C(CCN1C(=O)NC2(CCCC2)C1=O)Nc1ccc(-c2nc3ccccc3s2)cc1`?
Mtb betalactam: 88

What do the screens show for `Cc1ccc([C@H]2C(C(=O)O)=CC[C@@H](c3ccc(Cl)cc3)N2S(=O)(=O)c2ccc(C)cc2)cc1`?
Mtb betalactam: -15

How did CN(C(=O)CSc1nc2ccccc2c(=O)n1-c1ccc(F)cc1F)C1CCS(=O)(=O)C1 (stereo not given) do in these assays?
Mtb betalactam: 3

How did CC(=O)c1ccc(N2CCN(CC(=O)Nc3ccccc3C(=O)NC3CC3)CC2)c(F)c1 do in these assays?
Mtb betalactam: -5

What do the screens show for `O=C(COc1cccc(C(F)(F)F)c1)Nc1nnc(C2CC2)s1`?
Mtb betalactam: -5

What do the screens show for `CC(C)=CC(=O)Nc1cccc(S(=O)(=O)NC2=NCCCCC2)c1`?
Mtb betalactam: 2

Results for COC(=O)C1=C(C)N(Cc2ccccc2)C(=NCc2ccccc2)N[C@H]1c1cccc(C(F)(F)F)c1 ?
Mtb betalactam: 100

How did COc1cc2c(-c3cc(F)cc(F)c3)c(-c3ccsc3)oc(=O)c2cc1OC do in these assays?
Mtb betalactam: 8

How did CCc1ccc(N(C(=O)c2snc(C(N)=O)c2N)C(C(=O)NCC2CCCO2)c2ccco2)cc1 (stereo not given) do in these assays?
Mtb betalactam: -3

Results for CCN(C(=O)COC(=O)c1ccco1)c1cccc2ccccc12 ?
Mtb betalactam: 5

How did CCC(ONc1ccccc1C(F)(F)F)(C(=O)NN(C)C)c1ccccc1 (stereo not given) do in these assays?
Mtb betalactam: 28

What do the screens show for `NS(=O)(=O)c1ccc(CNC(=O)C2CCCN2C(=O)c2cccs2)cc1` (stereo not given)?
Mtb betalactam: 4

Results for C[C@H](CO)N1C[C@H](C)[C@@H](CN(C)C(=O)Nc2ccccc2)Oc2ccc(NC(=O)C3CC3)cc2C1=O ?
Mtb betalactam: -12

How did CCN(CC)S(=O)(=O)c1ccc(OC)c(NC(=O)CC2CCCC2)c1 do in these assays?
Mtb betalactam: 4

What do the screens show for `O=C(CNC(=O)c1ccc(Br)o1)NC12CC3CC(CC(C3)C1)C2`?
Mtb betalactam: -1

What do the screens show for `CN(Cc1ccccc1)C(=O)c1ccc(NC(=O)Cc2ccc([N+](=O)[O-])cc2)cc1`?
Mtb betalactam: 18

What do the screens show for `O=C(CC1C[C@H](C(=O)N2CCOCC2)[C@@]2(CCC3CCCC3)c3[nH]c4ccccc4c3CCN2C1=O)NCCC1=CCCCC1` (stereo not given in full)?
Mtb betalactam: 0

How did CC1CCCN(S(=O)(=O)c2cccc(C(=O)OCC(=O)N(C)Cc3c(F)cccc3Cl)c2)C1 (stereo not given) do in these assays?
Mtb betalactam: -9

Results for O=[N+]([O-])c1cccc(-c2c(-c3ccccc3)ncc3cc(F)ccc23)c1 ?
Mtb betalactam: 4

What do the screens show for `O=S1(=O)c2cccc3cccc(c23)N1CCBr`?
Mtb betalactam: 0

How did COc1ccc(NS(=O)(=O)c2ccc(C(=O)N(C)Cc3ccc(C)o3)cc2)cc1 do in these assays?
Mtb betalactam: 2

Results for O=C(COc1ccc(Br)cc1)Nc1nnc(C2CC2)s1 ?
Mtb betalactam: 6

How did CCCCCCCC1c2c(c(C)c(C)oc2=O)Oc2c(C)c(C)oc(=O)c21 do in these assays?
Mtb betalactam: 2

Results for CC(=O)Nc1ccc(S(=O)(=O)NC2(C(F)(F)F)NC(=O)N(c3ccc(C)cc3)C2=O)cc1 (stereo not given) ?
Mtb betalactam: inconclusive

What do the screens show for `Cc1ccc(C)c(NC(=O)c2ccc(OCc3c(C)noc3C)cc2)c1`?
Mtb betalactam: -1

Results for Cc1ccnn1-c1ccc(C(=O)NCC(c2ccco2)N2CCCC2)cc1 (stereo not given) ?
Mtb betalactam: -9

What do the screens show for `COc1ccccc1C(=O)CN1C(=O)NC2(CCCCCC2)C1=O`?
Mtb betalactam: 3

Results for Cc1ccc(-n2ccnc2SCC(=O)c2c(N)n(C3CC3)c(=O)[nH]c2=O)cc1C ?
Mtb betalactam: -3

What do the screens show for `COC(=O)[C@]1(C)N[C@H](CN(C)S(=O)(=O)c2ccc(C)cc2)[C@@H]2C(=O)N(C)C(=O)[C@@H]21`?
Mtb betalactam: 1

How did COc1ccc(S(=O)(=O)N2CCOCC2)cc1NC(=O)c1sccc1C do in these assays?
Mtb betalactam: -3

How did O=C(CN(C(=O)c1nsc(Cl)c1Cl)c1ccc(F)cc1)NC1CCCC1 do in these assays?
Mtb betalactam: -1

What do the screens show for `CC(=O)Nc1ccc(S(=O)(=O)NCC(=O)Nc2ccc3c(c2)OCO3)cc1`?
Mtb betalactam: 1

How did O=C(Cc1cccc(C(F)(F)F)c1)N1CCN(CC(=O)N2CCCC2)CC1 do in these assays?
Mtb betalactam: 8

Results for O=C(Nc1ccc(Cl)c(S(=O)(=O)N2CCOCC2)c1)c1cc(=O)[nH]c2ccccc12 ?
Mtb betalactam: -1

What do the screens show for `CCOC(=O)C1=CC[C@H]2c3c(c4ccccc4n3C)C(=O)C1N2S(=O)(=O)c1ccc(C)cc1`?
Mtb betalactam: -3

How did Cc1ccc(S(=O)(=O)CCC(=O)Nc2cccc(S(=O)(=O)N3CCCCCC3)c2)cc1 do in these assays?
Mtb betalactam: 4

Results for Cc1nn(C)c(C(=O)N/N=C/c2ccncc2)c1Cl ?
Mtb betalactam: inconclusive

Results for Cc1ccc(NC(=O)Cc2nnc(SCC(=O)NC3=NCCS3)n2C)cc1 ?
Mtb betalactam: -7

What do the screens show for `CCC(NS(=O)(=O)c1cccs1)c1ccc(C)cc1` (stereo not given)?
Mtb betalactam: -4

What do the screens show for `Cc1noc(C)c1COc1ccccc1C(=O)N1CCN(c2cccc(Cl)c2)CC1`?
Mtb betalactam: -4

How did Oc1cc(NCCN2CCOCC2)cc2cccnc12 do in these assays?
Mtb betalactam: 18

What do the screens show for `CC1(O)CCN2C(=O)CCc3cccc1c32` (stereo not given)?
Mtb betalactam: -3

Results for Cn1nc(C(=O)OCC(=O)c2ccccc2)c2ccccc2c1=O ?
Mtb betalactam: -5

What do the screens show for `COC(=O)C1=C(c2ccc3ccccc3c2)C[C@@H]2CC[C@H]1N2C(=O)N1CCC(O)CC1`?
Mtb betalactam: -6

What do the screens show for `O=C(CSc1nnc(CN2CCCC2)n1-c1ccccc1)c1ccc2c(c1)OCO2`?
Mtb betalactam: -8

How did CCN(CC(=O)NCc1cccs1)C(=O)CCCOc1ccccc1 do in these assays?
Mtb betalactam: 1

What do the screens show for `COc1cccc(NC(=O)COC(=O)c2sccc2C)c1`?
Mtb betalactam: -2

Results for CC(NC(=O)C1CCCN(C(=O)c2ccc(Cl)cc2)C1)c1cccc(C(F)(F)F)c1 (stereo not given) ?
Mtb betalactam: -7

How did Cc1cccc([N+](=O)[O-])c1NC(=O)COC(=O)c1nc2nccc(C)n2n1 do in these assays?
Mtb betalactam: 2

How did CCOC(=O)c1ccc(S(=O)(=O)NC2CCC(C)CC2)cc1 (stereo not given) do in these assays?
Mtb betalactam: -1

How did O=S(=O)(NCc1nnc2ccccn12)c1ccc(Cl)cc1 do in these assays?
Mtb betalactam: -7

Results for Cc1ccsc1/C=N/NC(=O)c1nnn(-c2nonc2N)c1C ?
Mtb betalactam: -7

What do the screens show for `Cc1cc(C)c(NC(=O)CN(C)CC(=O)Nc2cccc(S(=O)(=O)N(C)c3ccccc3)c2)c(C)c1`?
Mtb betalactam: -3

Results for Cc1cc(C(=O)CCC(=O)NCC(=O)Nc2c(C)cccc2C)c(C)s1 ?
Mtb betalactam: -5

How did O=C(COC(=O)c1cccc(O)c1)Nc1ccc(N2CCOCC2)cc1 do in these assays?
Mtb betalactam: -3

What do the screens show for `COc1cccc(NC(=O)COC(=O)C2CC2)c1`?
Mtb betalactam: 37

What do the screens show for `COc1cccc(NC(=O)CN(C)C(=O)CC2Sc3ccccc3NC2=O)c1` (stereo not given)?
Mtb betalactam: 0

How did Nc1cc(=O)[nH]c(SCC(=O)N2CCC(Cc3ccccc3)CC2)n1 do in these assays?
Mtb betalactam: 6

What do the screens show for `CC1(C)CC(NC(=S)NC(=O)c2cc(Br)ccc2Cl)CC(C)(C)N1`?
Mtb betalactam: 7

How did O=C(COC(=O)c1ccc2c(c1)OCCO2)NCCc1ccccc1 do in these assays?
Mtb betalactam: 0

Results for COc1cc(OC)cc(-c2oc(=O)c3cc(OC)c(OC)cc3c2/C=C/c2ccc(F)cc2)c1 ?
Mtb betalactam: -1

How did CCN(CC(=O)NCc1ccc(F)cc1)C(=O)C(C)Oc1cccc(Cl)c1 (stereo not given) do in these assays?
Mtb betalactam: 4

How did CNC[C@H]1Oc2c(NS(=O)(=O)c3ccc(F)cc3)cccc2C(=O)N([C@H](C)CO)C[C@@H]1C do in these assays?
Mtb betalactam: 2

Results for Cc1ccc(S(=O)(=O)c2nc(-c3ccco3)oc2N2CCC(C)CC2)cc1 ?
Mtb betalactam: inconclusive

What do the screens show for `Nc1cc(N)nc(SCC(=O)NC(=O)NC2CCCC2)n1`?
Mtb betalactam: -2

How did COc1ccc(C)cc1NC(=O)CCNC(=O)Cn1ccc2ccccc2c1=O do in these assays?
Mtb betalactam: -6

What do the screens show for `C/C(=N\OCC(=O)OCC(=O)N(C)c1ccccc1)c1ccc2c(c1)OCO2`?
Mtb betalactam: 7

What do the screens show for `CN1CCN(C(=O)c2cc3ccccc3cc2O)CC1`?
Mtb betalactam: 9

How did Cc1cccc(Nc2nc(-c3ccccc3)cs2)n1 do in these assays?
Mtb betalactam: 12

How did CC1Cc2ccccc2N1S(=O)(=O)c1cccc(C(=O)NCc2ccccn2)c1 (stereo not given) do in these assays?
Mtb betalactam: -2

Results for C[C@@H]1CC(=O)[C@H]2CC(CO)=CCC[C@@H]2[C@@]1(C)CC/C(=C/CO)CO ?
Mtb betalactam: 1

Results for CCCCN(C(=O)CSc1nnc(-c2ccccc2)o1)c1c(N)n(CCC)c(=O)[nH]c1=O ?
Mtb betalactam: 5

How did Cc1cc(NC(=O)CN(C)CC(=O)Nc2ccc(F)c(F)c2F)no1 do in these assays?
Mtb betalactam: -4

How did Nc1nc(COC(=O)c2ccc3c(c2)OCCO3)nc(Nc2ccccc2)n1 do in these assays?
Mtb betalactam: 50

Results for COc1cc(OC)cc(C(=O)Nc2ccc(C(=O)Nc3ccccc3OC)cc2)c1 ?
Mtb betalactam: 4

Results for CC1CCC(NC(=O)CN(C)CC(=O)Nc2ccc(F)cc2)CC1 (stereo not given) ?
Mtb betalactam: 0

How did COC(=O)c1ccc(C)c(NC(=O)Cn2c(C)csc2=O)c1 do in these assays?
Mtb betalactam: -6

Results for O=c1cccc2n1CC1CNC[C@H]2C1 ?
Mtb betalactam: -3

What do the screens show for `COc1ccc(C)cc1N1CC(C(=O)Nc2ccccc2C(=O)NC2CC2)CC1=O` (stereo not given)?
Mtb betalactam: 1

How did Cc1ccc(NC(=O)C2CCCC2)cc1S(=O)(=O)N1CCOCC1 do in these assays?
Mtb betalactam: -4

Results for OC[C@@H](O)[C@@H](O)CO ?
Mtb betalactam: -6

What do the screens show for `COc1ccc(Cl)cc1C(=O)n1cnc2ccccc21`?
Mtb betalactam: 4

How did Cc1cccc(N2CN(S(=O)(=O)c3cccc([N+](=O)[O-])c3)c3nc4ccccc4nc32)c1 do in these assays?
Mtb betalactam: -3

How did O=C(CCNS(=O)(=O)c1ccccc1Cl)OCc1nnc(-c2ccccc2Cl)o1 do in these assays?
Mtb betalactam: 12

What do the screens show for `CCCNC(=O)C(Cc1cccc(Br)c1)NC(=O)c1ccc(C#N)cc1` (stereo not given)?
Mtb betalactam: 4

How did Cc1c(C(=O)NNC(=O)c2cccnc2)cccc1[N+](=O)[O-] do in these assays?
Mtb betalactam: -14

Compounds from the list above that contain two or more sulfur atoms:
How did Cc1ccc(S(=O)(=O)N(C)CC(=O)NNC(=O)CCS(=O)(=O)c2ccccc2)cc1 do in these assays?
Mtb betalactam: 1

How did CNC(=S)N1CCN(S(=O)(=O)c2ccc3ccccc3c2)CC1 do in these assays?
Mtb betalactam: -2

What do the screens show for `Cc1nnc(SCC(=O)N(CCC#N)c2ccc3c(c2)OCCO3)s1`?
Mtb betalactam: 4

How did CN(C(=O)CSc1nc2ccccc2c(=O)n1-c1ccc(F)cc1F)C1CCS(=O)(=O)C1 (stereo not given) do in these assays?
Mtb betalactam: 3

What do the screens show for `NS(=O)(=O)c1ccc(CNC(=O)C2CCCN2C(=O)c2cccs2)cc1` (stereo not given)?
Mtb betalactam: 4

How did COc1ccc(S(=O)(=O)N2CCOCC2)cc1NC(=O)c1sccc1C do in these assays?
Mtb betalactam: -3

How did Cc1ccc(S(=O)(=O)CCC(=O)Nc2cccc(S(=O)(=O)N3CCCCCC3)c2)cc1 do in these assays?
Mtb betalactam: 4

Results for Cc1ccc(NC(=O)Cc2nnc(SCC(=O)NC3=NCCS3)n2C)cc1 ?
Mtb betalactam: -7

What do the screens show for `CCC(NS(=O)(=O)c1cccs1)c1ccc(C)cc1` (stereo not given)?
Mtb betalactam: -4

2 records drawn at random from the list so far:
How did Cc1c(C(=O)NNC(=O)c2cccnc2)cccc1[N+](=O)[O-] do in these assays?
Mtb betalactam: -14

Results for OC[C@@H](O)[C@@H](O)CO ?
Mtb betalactam: -6
